# CSC inhib: blocks cancer stem cells; inhibition, % at 7.5 µM; actives 1.1% (n = 300,000); cancer stem cell-like cells viability, luminescence;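 active = mean at 75% or more and at least half the replicates too; inconclusive = mean and replicates disagree; tested in HMLE shEcad cells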;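 note: 0% = median of negative and 100% = median of positive control wells; the first replicate is given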
# UUG fidelity: yeast start codon fidelity modulation; activity score, % at 18.7 µM; actives 0.13% (n = 350,000); S. cerevisiae UUG-firefly luciferase reporter, luminescence/redox ratio; AID 602363;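 active = replicate mean at a twofold rise or more, about +100% in these data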;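 note: firefly luciferase made from a UUG start codon reports start codon fidelity; reporter light over untreated wells divided by growth signal over untreated wells; some hits fall short of that in this replicate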
# Env fusion inh: HIV envelope-mediated fusion inhibition. HeLa-JRFL Env/CEM21 cell fusion, luciferase. inhibition, % at 12.3 µM. actives 1.1% (n = 360,000). AID 651610;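 active = mean replicate inhibition score of at least 50 and every replicate individually at or above 50; inconclusive = only one of the two criteria met; inactive = mean below 50 and not all replicates reaching 50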;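 note: 0% = plate neutral controls and 100% = maraviroc near 300 nM; one replicate is shown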
# MT1-MMP act inh: MT1-MMP (human) activation inhibition; GFP/RFP ratio change, % at 20 µM; HT1080 RFP-PRO-GFP cells, GFP/RFP ratio fluorescence, overnight; percent of plate control window, DMSO zero; P50281; actives 0.061% (n = 360,000);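 active = GFP/RFP ratio change of at least 30% with cell ATP level not reduced by more than half and red fluorescence within 50% of control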; note: strong numbers were not always called active
#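 Material – HT1080 RFP-PRO-GFP cells · Control set – DMSO wells and RFP-L50D-GFP cells · Incubation – overnight cell settling, then overnight compound exposure, 37 °C, 5% CO2 · Compound dosing – single-point 20 µM compound, 1% DMSO · Read-out – GFP/RFP fluorescence ratio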
# PABP FP inh: blocks human PABP binding to poly(A) RNA. fluorescence polarization. AID 2014. inhibition, % at 35 µM. actives 1% (n = 290,000);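 active = 50% or more with normal probe brightness, or confirmed in later tests; inconclusive = above 50% with abnormal brightness, or retests that disagree; inactive = below 50% or failed in later tests; about a fifth of its hits are not listed in these tables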;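 note: calls also rest on retests at 20 µM and on dose response follow-up; controls were probe without protein and protein plus probe with vehicle; some compounds called inactive have numbers as strong as hits; many hits fall short of the cut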
# Target sequence (P11940 whole entry, looked up): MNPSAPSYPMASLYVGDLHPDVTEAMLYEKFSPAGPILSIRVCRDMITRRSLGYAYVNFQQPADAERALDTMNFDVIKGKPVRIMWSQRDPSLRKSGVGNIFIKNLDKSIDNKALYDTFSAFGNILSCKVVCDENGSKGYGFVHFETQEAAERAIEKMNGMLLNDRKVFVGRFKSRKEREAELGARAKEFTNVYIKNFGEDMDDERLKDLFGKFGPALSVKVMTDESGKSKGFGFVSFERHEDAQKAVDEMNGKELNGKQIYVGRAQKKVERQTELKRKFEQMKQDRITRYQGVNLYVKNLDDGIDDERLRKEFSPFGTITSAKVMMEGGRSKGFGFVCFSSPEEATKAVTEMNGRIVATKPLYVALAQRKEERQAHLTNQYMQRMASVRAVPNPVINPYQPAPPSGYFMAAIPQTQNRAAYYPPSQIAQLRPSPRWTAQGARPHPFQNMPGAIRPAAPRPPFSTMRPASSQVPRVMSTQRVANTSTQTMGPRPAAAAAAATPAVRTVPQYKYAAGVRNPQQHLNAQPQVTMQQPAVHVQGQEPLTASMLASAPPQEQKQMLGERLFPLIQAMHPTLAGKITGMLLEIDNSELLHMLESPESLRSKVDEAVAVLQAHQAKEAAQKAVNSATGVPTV
# eIF4H FP inh: inhibitors of RNA binding by human eIF4H. AID 2012. inhibition, % at 35 µM. Q15056. actives 0.94% (n = 290,000). eIF4H fluorescence polarization binding assay;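 active = 50% or more with normal probe brightness, or confirmed in later tests; inconclusive = above 50% with abnormal brightness, or retests that disagree; inactive = below 50% or failed in later tests; about a fifth of its hits are not listed in these tables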;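 note: calls also rest on retests at 20 µM and on dose response follow-up; 0% = protein and probe with vehicle and 100% = probe without protein; strong numbers were not always called active; many hits fall short of the cut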
# Rce1 inhib: blocks yeast Ras-converting enzyme; calls only; actives 0.27% (n = 290,000); Q03530; yeast membranes, quenched prenylated peptide cleavage fluorescence; AID 2563;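 active = fall in fluorescence gain of 50% or more versus controls, with final raw signal at or below 3038400; inconclusive = same 50% fall but final raw signal above 3038400; inactive = fall in fluorescence gain under 50%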;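 note: plate controls were neutral control wells for no effect and wells lacking membranes for full effect; tested at 10 µM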
# Target sequence (Q03530 whole entry, looked up): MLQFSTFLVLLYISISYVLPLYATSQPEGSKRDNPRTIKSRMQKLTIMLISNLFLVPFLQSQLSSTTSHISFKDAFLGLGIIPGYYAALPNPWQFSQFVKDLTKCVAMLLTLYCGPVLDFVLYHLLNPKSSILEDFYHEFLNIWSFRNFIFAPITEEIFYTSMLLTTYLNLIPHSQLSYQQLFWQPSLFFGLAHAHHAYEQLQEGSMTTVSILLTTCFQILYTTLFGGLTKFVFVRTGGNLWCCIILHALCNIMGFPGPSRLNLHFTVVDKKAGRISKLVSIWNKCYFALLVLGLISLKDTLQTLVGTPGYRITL
# eIF4H FP inh retest: second read-out of eIF4H FP inh, no call of its own (marks repeat the call); inhibition, %; compound at 20 µM; confirmation average;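 mean of two retest wells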
# PABP FP inh retest: recorded beside PABP FP inh, whose call it bears; inhibition, %; compound at 20 µM; confirmation repeats;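 mean of two retest wells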
# MT1-MMP act inh RFP: also measured in MT1-MMP act inh; calls as there; RFP signal change, %; measured here: RFP expression control read;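 0 = vehicle wells; hits needed this value within 50% of zero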
# * marks the source's active call; other numbers are inactive results; i = inactive; ? = inconclusive; / = not tested or not shown; & = joins results of further samples.
SMILES,CSC inhib,UUG fidelity,Env fusion inh,MT1-MMP act inh,MT1-MMP act inh RFP,PABP FP inh,eIF4H FP inh,Rce1 inhib,others
Clc1ccc2c(NCc3ccccn3)ncnc2c1,-4,-27,/,-2,1,-3,13,i,
Oc1ccc(/C=N/Nc2ncc(Cl)cc2Cl)cc1,8,-2,-12,3,2,-7,-10,i,
O=C(COC(=O)Cc1n[nH]c(=O)c2ccccc12)Nc1cccc(C(F)(F)F)c1,-1,-17,5,0,2,6,-7,i,
c1ccc(-c2nc(NCc3cccnc3)c3oc4ccccc4c3n2)cc1,31,-26,-89,4,0,19,-10,i,
COc1ccc(-c2oc3ccc(-c4ccc(OC)nc4)cc3c2-c2ccc(OC)cc2)cc1,25,-16,10,0,-3,/,/,i,
CSc1nc(-c2ccc(Cl)cc2)nn1C(=O)c1ccco1,-19,/,/,1,0,-2,-15,i,
Cc1cc(C)n(-c2ccc(C)c(Cl)c2)n1,-2,/,3,4,5,-5,-1,i,
COC(=O)N(C)C[C@H]1OCc2cn(nn2)CCCC(=O)N([C@@H](C)CO)C[C@@H]1C,/,19&-17,-16,2,4,/,/,/,
CCCNCC(=O)Nc1sc2c(c1C(=O)Nc1c(C)n(C)n(-c3ccccc3)c1=O)CCCC2,/,-18,-43,4,3,/,/,/,
O=C(CSc1ccc2c(c1)OCCO2)Nc1ncc(Cl)cc1Cl,5,0,6,0,-5,3,4,i,
COc1cccc(CNC(=O)CCCn2ncn3c(cc4occc43)c2=O)c1,-20,-28,2,2,1,-16,-4,i,
Cc1ccc(C(=O)Nc2ccc3c(c2)nc2n3CCSC2)cc1,-3,-21,-178,4,1,-5,-14,i,
COC(=O)c1ccccc1Oc1ccc(NC(=O)C(C)(C)CCl)cc1,6,/,1,2,3,1,-1,i,
NNC(=O)CN1C(c2ccccc2Br)=Nc2ccc(Br)cc2C1c1ccccc1 (configuration not stated),/,/,/,0,-1,-1,0,i,
COc1ccc2c(c1)OC/C(=C/c1cccs1)C2=O,-9,/,-2,3,-3,1,-4,i,
CN(C)Cc1c(C(=O)N/N=C/C=C/c2ccccc2)nnn1-c1nonc1N,-2,-12,-1,-1,0,3,9,/,
CC(C(=O)OCC(=O)N(C)C1(C#N)CCCCC1)N1C(=O)c2ccccc2C1=O (configuration not stated),-16,5,-6,0,4,/,/,/,
N#Cc1cc2cc3c(cc2nc1N1CCCCC1)OCCO3,-14,-9,-94,-4,3,31,2,i,
c1ccc(N2CCN(c3ccccc3)C2c2cccnc2)cc1,-3,-5,/,/,/,4,5,i,
CC(C)C(NC(=O)COc1ccccc1)C(=O)O (configuration not stated),0,-21,-42,6,4,10,6,i,
CCNC(=O)C1Cc2ccccc2CN1S(=O)(=O)c1ccc(F)cc1 (configuration not stated),5,3,1,1,1,-1,7,i,
Cc1ccc(SCCSc2nc(C)cc(=O)[nH]2)cc1,/,-10,-1,1,1,10,-2,i,
COC(=O)Cn1nc(-c2ccc(C)c(S(=O)(=O)N(C)C)c2)c2ccccc2c1=O,3,-11,-25,-5,-2,-2,2,i,
COc1ccc(S(=O)(=O)N2CCC3(CC2)CC(=O)c2ccccc2O3)cc1C,-8,-16,-4,-1,-2,/,/,i,
COC(=O)CCC(=O)N1CCOCCOCCN(C(=O)CCC(=O)OC)CCOCCOCC1,-4,-6,/,2,0,-2,10,i,
CCC(C)(C)NC(=O)C(c1ccc(OC)cc1)N(C(=O)CCC(=O)Nc1cc(C)on1)c1cccc(F)c1 (configuration not stated),1,-13,15,2,0,1,4,i,
CCNC(=O)N(C(=O)NCC)n1c(C)nnc1C,3,-9,/,2,2,-8,0,i,
CSCCC(NS(=O)(=O)c1ccc2c(c1)OCCO2)C(=O)N(C)Cc1ccc(C)cc1 (configuration not stated),/,12,19,-4,-2,-2,-1,i,
COc1ccc(NC(=O)CN2C(=O)NC(C)(Cc3ccc(OC)c(OC)c3)C2=O)cc1 (configuration not stated),/,-7,14,2,5,/,/,/,
Cc1cc(C(F)(F)F)n2nc(C(=O)O)c(Cl)c2n1,-9,-15,/,-1,2,1,-1,/,
Nc1nonc1-n1nnc(C(=O)N/N=C/c2cccc(Cl)c2)c1CN1CCCCCC1,-17,-13,-3,-1,8,/,/,i,
COC(=O)COc1ccc2cc(-c3ccc(OC)cc3)c(=O)oc2c1,7,-14,-5,-1,4,2,-17,i,
S=C(NCc1ccco1)Nc1cccc(Cl)c1,/,/,4,-1,-12,11,-9,i,
CCOc1ccc(C(=O)Nc2cc(Cl)ccc2-n2cncn2)cc1OC,-15,/,-2,-1,-1,/,/,i,
Cc1ccc(S(=O)(=O)N(Cc2cccc(Cl)c2)C(=O)N2CCN(C)CC2)cc1,5,-14,-16,3,0,/,/,i,
N#Cc1sc2nc(-c3cccs3)cc(-c3ccccc3)c2c1N,17,-13,/,-13,2,9,23,i,
COCCCNCCCCOc1ccc(OCc2ccccc2)cc1,/,/,-3,1,5,4,2,i,
COc1ccc(NC(=O)C2CCN(C(=O)NC3CCCCC3)CC2)c(OC)c1,-17,/,-1,5,5,-4,-5,i,
CC(C)OCC(O)CN1CCN(C(c2ccccc2)c2ccccc2)CC1 (configuration not stated),1,/,-11,-8,-3,25,-10,i,
COc1cc(NC(=O)CN(c2cc(C)cc(C)c2)S(=O)(=O)c2c(C)noc2C)cc(OC)c1,5,-16,14,-7,-3,-14,-6,i,

# Pulled by structure from above (three):
SMILES,CSC inhib,UUG fidelity,Env fusion inh,MT1-MMP act inh,MT1-MMP act inh RFP,PABP FP inh,eIF4H FP inh,Rce1 inhib,others
CC(C)OCC(O)CN1CCN(C(c2ccccc2)c2ccccc2)CC1 (configuration not stated),1,/,-11,-8,-3,25,-10,i,
Cc1ccc(S(=O)(=O)N(Cc2cccc(Cl)c2)C(=O)N2CCN(C)CC2)cc1,5,-14,-16,3,0,/,/,i,
Nc1nonc1-n1nnc(C(=O)N/N=C/c2cccc(Cl)c2)c1CN1CCCCCC1,-17,-13,-3,-1,8,/,/,i,

# Next part:
SMILES,CSC inhib,UUG fidelity,Env fusion inh,MT1-MMP act inh,MT1-MMP act inh RFP,PABP FP inh,eIF4H FP inh,Rce1 inhib,others
COc1ccc2c(c1)CC(=O)NC=C2,-6,-22,4,2,1,12,7,i,
O=C(CSc1nc2[nH]ncc2c(=O)[nH]1)Nc1ccc(Cl)cc1,4,/,/,0,-4,/,/,i,
COc1cc(C(=O)N2CCc3ccccc32)ccc1OCc1c(C)noc1C,2,2,19,0,-14,-6,-9,i,
Cn1c(=O)n(CC(N)=O)c(=O)c2c1nc(Br)n2Cc1ccccc1,-6,21,-3,0,-3,4,-1,i,
CCOC(=O)CN1CC23C=CC(O2)C(C(=O)Nc2ccc(C(C)=O)cc2)C3C1=O (configuration not stated),-16,-14,-19,0,5,-5,-11,i,
Cc1cccn2c(=O)c3cc(C(=O)NC(C)C)c(=N)n(Cc4ccncc4)c3nc12,-8,8,/,2,1,-3,5,i,
Cc1cc(=O)[nH]c(SCC(=O)Nc2ccc(Br)cn2)n1,2,4,/,/,/,-1,-11,i,
COC(=O)C1CCN(C(=O)c2cc(=O)[nH]c3ccccc23)CC1,-1,-20,11,3,3,-7,-6,i,
O=[N+]([O-])c1ccc(Oc2ccc(S(=O)(=O)N3CCOCC3)cc2)cc1,-6,-8,-1,1,-13,8,0,i,
CC(=O)N1CCN(S(=O)(=O)c2ccc(S(=O)(=O)NC3CCCCC3)cc2)CC1,-14,8,-12,-3,-3,0,-10,i,
Cc1ccccc1NS(=O)(=O)c1cc(C(=O)NCc2ccco2)ccc1C,0,3,-57,6,3,-9,-18,i,
Cc1cccn2c(=O)c3cc(C(=O)NC4CCCC4)c(=N)n(Cc4ccc(F)cc4)c3nc12,-17,-9,-12,-7,-14,-6,-8,i,
O=C(O)c1cc(=O)c2ccccc2[nH]1,-7,-21,/,0,-2,/,/,/,
Cc1cccc(/C(N)=N/OC(=O)Cc2ccccc2)c1,-22,/,-57,0,4,-9,-2,i,
CC1CC(C)CN(CCCNC(=O)c2ccc(CS(=O)(=O)Cc3cccc(Cl)c3)o2)C1 (configuration not stated),-8,1,7,-2,-1,2,-3,i,
O=[N+]([O-])c1ccc(-c2cn3nc(-c4ccccc4)c(-c4ccccc4)nc3n2)cc1,-1,-3,3,-6,2,82,76,i,eIF4H FP inh retest=-5;PABP FP inh retest=45
CCN(CCO)C(=S)Nc1cc(C(=O)OC)ccc1C(=O)OC,-4,-27,-53,-6,1,8,-2,i,
C/C(=N\S(=O)(=O)c1ccc(C)cc1)N1CCN(S(=O)(=O)c2ccccc2)C1C(C)C (configuration not stated),-16,-32,/,3,5,4,-8,i,
CCN1CCN(Cc2c(O)ccc3c2O/C(=C\c2ccc(C)cc2)C3=O)CC1,-12,/,-16,-15,-1,-7,?,i,
Cc1ccc(CCNC(=O)CN(c2cc(C)cc(C)c2)S(=O)(=O)c2c(C)noc2C)cc1,-7,6,14,2,2,11,10,i,

# 5 entries out of the list, sorted by length of the SMILES, smallest number first.
SMILES,CSC inhib,UUG fidelity,Env fusion inh,MT1-MMP act inh,MT1-MMP act inh RFP,PABP FP inh,eIF4H FP inh,Rce1 inhib,others
S=C(NCc1ccco1)Nc1cccc(Cl)c1,/,/,4,-1,-12,11,-9,i,
Clc1ccc2c(NCc3ccccn3)ncnc2c1,-4,-27,/,-2,1,-3,13,i,
COc1cc(C(=O)N2CCc3ccccc32)ccc1OCc1c(C)noc1C,2,2,19,0,-14,-6,-9,i,
Nc1nonc1-n1nnc(C(=O)N/N=C/c2cccc(Cl)c2)c1CN1CCCCCC1,-17,-13,-3,-1,8,/,/,i,
CCC(C)(C)NC(=O)C(c1ccc(OC)cc1)N(C(=O)CCC(=O)Nc1cc(C)on1)c1cccc(F)c1 (configuration not stated),1,-13,15,2,0,1,4,i,

# Next part
SMILES,CSC inhib,UUG fidelity,Env fusion inh,MT1-MMP act inh,MT1-MMP act inh RFP,PABP FP inh,eIF4H FP inh,Rce1 inhib,others
O=C(COC(=O)c1ccccc1)Nc1cc(Cl)ccc1Oc1ccccc1,0,-8,14,-3,-2,2,0,i,
CC1Cc2ccccc2N1Cc1cc(=O)c(OCC(=O)Nc2ccccc2)co1 (configuration not stated),25,-16,53,7,-7,/,/,i,
CC(Sc1nnnn1-c1ccc(O)cc1)C(=O)NC1CCCCC1C (configuration not stated),8,-6,2,2,-3,-2,-7,i,
COc1ccc(CC(=O)N(C)CC(=O)Nc2ccccc2Cl)cc1S(=O)(=O)N1CCOCC1,-3,-6,2,-1,7,/,/,/,
COC(=O)CCN(C(=O)c1ccc(Cl)c([N+](=O)[O-])c1)c1ccccn1,-7,/,20,4,3,-3,-7,i,
CCOc1ccccc1CNC(=O)c1ccccc1NC(=O)C1=CSCCO1,3,-15,9,-4,-3,-7,-14,i,
O=C(O)C12C[C@H]3C[C@@H](C1)CC(n1ncc(N4CCN(c5ccccc5)CC4)c(Cl)c1=O)(C3)C2,-2,/,-6,4,5,-10,-9,i,
CCOC(=O)CSc1nc(C)cc(C)c1C(N)=O,-3,/,1,-2,-2,-11,-12,i,
